HCMV NEC inh = inhibitors of HCMV UL50-UL53 nuclear egress complex interaction; HTRF UL50-UL53 interaction, normalized percent inhibition; inhibition, % (test concentration not listed); 0.15% of 190,000 active;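 active = both replicates at 50% or more, plus weaker picks with an unusually low signal ratio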;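 also: stock transfer was 100 nL into about 20 µL; 0% = negative control wells and 100% = wells with untagged competitor protein; inactives centre near -12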
Sa growth 42C = inhibitors of Staphylococcus aureus growth at 42 °C. S. aureus RN4220 growth, OD600, 20 h; stronger effect = lower value. relative growth, % (concentration not given with the values). 0.53% of 170,000 active. AID 720641;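 active = growth at 42 °C up to 50% and 20 or more points under that at 30 °C, or under 10% at both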;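 also: 300 nL library stock went into each well; scaled to the means of positive and negative controls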
GIV Gai3 FP = GIV-Galpha-i interaction inhibition; P08753; Galpha-i3/FITC-GIV peptide fluorescence polarization, 90 min; stronger effect = lower value; scaled: aluminum fluoride 0%, vehicle 100%; percent of control (FP), % (no concentration beside the values); 0.42% of 210,000 active;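 active = replicate mean at 85% of control or lower, very high polarization wells dropped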;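 also: wells of about 15 µL received 100 nL stock; the first replicate is given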
Target sequence (P08753 whole entry, looked up): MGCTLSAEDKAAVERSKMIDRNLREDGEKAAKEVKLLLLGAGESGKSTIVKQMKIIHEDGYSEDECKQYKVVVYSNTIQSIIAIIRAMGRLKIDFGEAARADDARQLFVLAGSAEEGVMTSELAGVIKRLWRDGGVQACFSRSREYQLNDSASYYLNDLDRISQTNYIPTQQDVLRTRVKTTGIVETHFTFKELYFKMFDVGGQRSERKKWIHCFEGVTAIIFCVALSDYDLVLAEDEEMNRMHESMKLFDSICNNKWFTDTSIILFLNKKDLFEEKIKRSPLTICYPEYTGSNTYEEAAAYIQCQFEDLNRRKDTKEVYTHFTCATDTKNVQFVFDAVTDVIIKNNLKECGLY
Sa growth 42C second temp = second read-out of Sa growth 42C, no call of its own (marks repeat the call); relative growth, %; measured here: growth at 30 °C;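 optical density after 20 h as mean of two plates; 100% = untreated growth and lower means inhibition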
Active calls of the source: *; . = no result given; & = joins results of further samples.

SMILES | HCMV NEC inh | Sa growth 42C | Sa growth 42C second temp | GIV Gai3 FP
O=C(COC(=O)c1cc(=O)c2ccccc2o1)c1ccc2[nH]c(=O)[nH]c2c1 | -15 | 101 | 90 | .
CCc1ccc(/C=C2/SC(=S)NC2=O)cc1 | -81 | . | . | 105
O=C(Cc1ccc(F)cc1)NCc1ccc2c(c1)CCN2C(=O)c1ccc(F)cc1 | . | 141 | 89 | 110
COc1ccccc1OCCn1c(CO)nc2ccccc21 | -4 | 111 | 86 | 100&99
CCCCCN1C(C(=O)c2ccccc2)=C(NC(=O)c2ccc(OC)c(OC)c2)c2ccccc2S1(=O)=O | -15&-14 | 94 | 95 | 104&102
CCn1c(CCNC(=O)c2ccco2)nc2ccccc21 | 2 | 111 | 88 | 106
CC(=O)N1c2ccc(S(=O)(=O)N3CCCCCC3)cc2CC1C(=O)NCc1ccccc1F (stereo not given) | . | 108 | 92 | 109
N#Cc1ccc(CSc2nnc(-c3sc4ccccc4c3Cl)o2)cc1 | 5 | 113 | 96 | .
COc1ccc(OCC(=O)NC(C)CCc2ccccc2)cc1 (stereo not given) | -25 | 111 | 79 | .
COC(=O)CNC(=O)c1cn(-c2ccc(C)c(C)c2)c(=O)c2ccccc12 | . | 79 | 75 | 100
Cc1cccc(-c2nc(S(=O)(=O)c3ccc(Cl)cc3)c(N3CCCCCC3)o2)c1 | -31 | 95 | 77 | 106
Cc1cn2c(=O)cc(COC(=O)c3ccc(NC(=O)COc4ccccc4C)cc3)nc2s1 | . | 81 | 85 | 96
O=C(C1CC1)N1CCc2cc(Br)cc(S(=O)(=O)NCCCN3CCN(Cc4ccccc4)CC3)c21 | 12 | 107 | 96 | 109
Cc1cc(C(=O)N2CCc3ccccc32)no1 | 2 | 102 | 112 | 102
Cc1ccc(Cn2c(C)c3cnn(CC(=O)NCCCN4CCCCCC4)c(=O)c3c2C)cc1 | 3 | 94 | 88 | 103
COc1ccc(OC)c(NC(=O)N2CCC(N3CCN(Cc4ccc(F)cc4)C(=O)C3=O)CC2)c1 | . | 89 | 92 | 105
O=C1/C(=C/c2cccc(Br)c2)SC(=S)N1CC(=O)N(CCO)c1ccccc1 | -31 | . | . | 99
CCOc1cc(/C=c2/sc3nc4ccccc4n3c2=O)ccc1OC | . | 84 | 82 | 110
N#C/C(=C\C=C\c1ccco1)c1nc(-c2ccccc2)cs1 | -7 | 81 | 52 | 175
CC12CCC(C(=O)Nc3ccc(Cl)cn3)(CC1=O)C2(C)C (stereo not given) | -5 | 92 | 78 | .
CC(=O)N1CCCn2c1nc1ccccc12 | -10 | 97 | 62 | 95
CCCC1CC(=O)CC(=O)C1 | -17 | 93 | 79 | .
Cc1cc(N2CCn3c(nc4ccccc43)C2)ccc1NC(=O)NC1CCCCC1 | 0 | . | . | 103
COc1ccc(C2C(=O)N(C3CCCCCC3)CC(=O)N2Cc2ccccc2)cc1 (stereo not given) | . | 129 | 89 | 100
COCCn1c(NC(=S)NC(=O)C2CC2)cc(=O)[nH]c1=O | -10 | 83 | 83 | .
COc1cc(OC)cc(C(=O)Nc2nc(CC(=O)NCCc3ccc(Cl)cc3)cs2)c1 | -15 | . | . | 108
COC(CNC(=O)c1ccc(CS(=O)(=O)Cc2cccc(C)c2)o1)OC | -32 | 102 | 82 | 108
COC(=O)c1cc(NC(=O)c2c(Cl)nc3sccn23)cc(C(=O)OC)c1 | -22 | 92 | 96 | .
O=C(NCCCn1ccnc1)c1cc2ccccc2o1 | -6 | 91 | 90 | .
O=C(O)Cc1csc(NC(=O)CSc2ccccc2)n1 | 0 | 111 | 90 | 109
O=C(O)COCC(=O)Nc1ccccc1SCc1noc(-c2cccs2)n1 | 9 | 110 | 105 | 104
COc1ccc(Oc2cc(C(F)(F)F)nc3cc(C(C)(C)C)nn23)cc1 | -40 | 94 | 83 | 102
CC1CCCC(NC(=O)c2ccc(N3CCCC3=O)cc2)C1C (stereo not given) | . | 125 | 82 | 102
COc1ccc(CNC(=O)Cn2nnc(-c3ccccc3F)n2)cc1 | -14 | 99 | 91 | 103
COc1ccccc1C(=O)Nc1nc2nc(C)cc(=O)n2[nH]1 | -24 | 107 | 91 | 103
FC(F)(F)c1cccc(Nc2ncnc3ccccc23)c1 | -14 | 102 | 82 | 110
CC1=C(C(=O)OC2CCCC(C)C2)C(c2ccccc2Cl)NC(=O)N1C (stereo not given) | -18 | 97 | 95 | .
CCCCN(CC)c1ncnc2sc3c(c12)CCC3 | -14 | 79 | 41 | .
CN(C)c1oc(-c2ccc(COc3ccccc3)o2)nc1C#N | -49 | 100 | 82 | 101
Cc1cc(NS(=O)(=O)c2ccc(NC(=O)COc3ccccc3Br)cc2)no1 | -20 | 98 | 71 | 105
CCCc1nc2c3ccccc3nc(=S)n2[nH]1 | -20 | 1.7* | 1.0* | 105
COc1cccc(N2CCN(C(=O)c3cccn3-c3nnc(N4CCCC4)s3)CC2)c1 | . | 84 | 86 | 97
CCOC(=O)C1CCN(C(=O)C2CCN(C3=NS(=O)(=O)C(c4ccc(C)c(C)c4)=C3C)CC2)CC1 | -94 | 106 | 96 | 103
CCOC(=O)c1c(C)n(-c2ccccc2)c2ccc(OC(=O)c3ccc(S(=O)(=O)N(C)C)cc3)cc12 | -9 | . | . | 102
CC1(C)CC(=O)c2c(ncc3c2CC(C)(C)CC3=O)C1 | -18 | 91 | 75 | 102
C=CCN(CC=C)S(=O)(=O)c1ccc(C(=O)O)cc1 | 5 | 103 | 96 | .
COc1cccc(/C=C2/Oc3ccccc3N(CC(=O)NCC3CCCO3)C2=O)c1 (stereo not given) | . | 75 | 93 | 101
CSc1nc(Nc2cccc(Cl)c2)c(C#N)c(-c2ccccc2)n1 | 18 | . | . | 100
Cc1onc(-c2ccccc2)c1-c1ccc(S(N)(=O)=O)cc1 | -21&-18 | 100 | 98 | .
Clc1ccc(-c2noc3ncnc(NCCCN4CCCC4)c23)cc1 | -24 | 90 | 85 | 104
(listing goes on)
SMILES | HCMV NEC inh | Sa growth 42C | Sa growth 42C second temp | GIV Gai3 FP
COc1ccc(OC)c(NC(=O)c2sc3ncnc(N4CCN(c5ccccn5)CC4)c3c2C)c1 | 4&-12 | . | . | 103&99
CC(=O)N1N=C(c2ccc(Br)cc2)CC1c1ccc(N(C)C)cc1 (stereo not given) | -28 | . | . | 115
O=C(NCCO)Nc1ccccc1 | -12 | 87 | 93 | 101
Cc1ccc(C)c(NC(=O)CN(C)C(=O)CSc2nnc(-c3ccc(Cl)cc3)o2)c1 | -5 | 93 | 87 | .
O=C1c2ccccc2NC(c2ccccc2Cl)N1c1ccc(F)cc1 (stereo not given) | -6 | 80 | 68 | .
CCOC(=O)c1c(C)[nH]c(C)c1S(=O)(=O)NCC(=O)N1CCN(c2ccccc2F)CC1 | . | 107 | 84 | 106
CCCOC(=O)CSC1=C(C#N)C(c2ccccc2C)C(C#N)C(=O)N1 (stereo not given) | -11 | 89 | 85 | 113
CC(C)(C)OC(=O)N1CCCC[C@@H]1C(=O)O | -26 | 74 | 85 | 98
Cc1cc(=O)n2ccccc2n1 | -27 | 99 | 97 | 102
O=C1C(c2ccc(F)cc2)N(C2CCCC2)C(=O)CN1C1CCCC1 (stereo not given) | -9 | 102 | 88 | 104&104

For convenience, some entries already given:
SMILES | HCMV NEC inh | Sa growth 42C | Sa growth 42C second temp | GIV Gai3 FP
COc1cccc(/C=C2/Oc3ccccc3N(CC(=O)NCC3CCCO3)C2=O)c1 (stereo not given) | . | 75 | 93 | 101
CSc1nc(Nc2cccc(Cl)c2)c(C#N)c(-c2ccccc2)n1 | 18 | . | . | 100
Cc1onc(-c2ccccc2)c1-c1ccc(S(N)(=O)=O)cc1 | -21&-18 | 100 | 98 | .
Clc1ccc(-c2noc3ncnc(NCCCN4CCCC4)c23)cc1 | -24 | 90 | 85 | 104
COc1ccc(OC)c(NC(=O)c2sc3ncnc(N4CCN(c5ccccn5)CC4)c3c2C)c1 | 4&-12 | . | . | 103&99
CC(=O)N1N=C(c2ccc(Br)cc2)CC1c1ccc(N(C)C)cc1 (stereo not given) | -28 | . | . | 115
O=C(NCCO)Nc1ccccc1 | -12 | 87 | 93 | 101
Cc1ccc(C)c(NC(=O)CN(C)C(=O)CSc2nnc(-c3ccc(Cl)cc3)o2)c1 | -5 | 93 | 87 | .
O=C1c2ccccc2NC(c2ccccc2Cl)N1c1ccc(F)cc1 (stereo not given) | -6 | 80 | 68 | .
CCOC(=O)c1c(C)[nH]c(C)c1S(=O)(=O)NCC(=O)N1CCN(c2ccccc2F)CC1 | . | 107 | 84 | 106
CCCOC(=O)CSC1=C(C#N)C(c2ccccc2C)C(C#N)C(=O)N1 (stereo not given) | -11 | 89 | 85 | 113
CC(C)(C)OC(=O)N1CCCC[C@@H]1C(=O)O | -26 | 74 | 85 | 98

Following part:
SMILES | HCMV NEC inh | Sa growth 42C | Sa growth 42C second temp | GIV Gai3 FP
CCOc1ccc(-c2nc(SCC(=O)Nc3ccc(C)c(C)c3)n3[nH]c(=O)cc3n2)cc1 | . | 80 | 93 | 100
O=C(CC1=NC(c2ccccc2O)ON1)N1CCCC1 (stereo not given) | -14 | 92 | 83 | 105
Cc1ccc(NC(=O)Cn2c(=O)n(CCC(=O)NCc3ccc4c(c3)OCO4)c(=O)c3sccc32)c(C)c1 | -3 | 96 | 91 | 103
CCN(CC)c1nc(OCCNC(=O)Nc2ccccc2)nc(N(CC)CC)n1 | -38 | 86 | 65 | 101
Cc1coc2c(C)c3oc(=O)c(CC(=O)NCCc4ccc(Cl)cc4)c(C)c3cc12 | -4 | 113 | 92 | 102
Cc1ccc(C)c(N2CCN(C(=O)c3ccc(Nc4nc5ccccc5n5nnnc45)cc3)CC2)c1 | -3 | 111 | 92 | 102
COc1ccc(NC(=O)c2ccc(NC(=O)N3CCSc4ncccc43)cc2)cc1 | . | 125 | 104 | 109
C=CCN1C(=O)c2ccc(C(=O)O)cc2C1=O | -62 | 97 | 95 | .
Cc1cccc(NC(=O)c2oc3ccc(S(=O)(=O)N4CCC5(CC4)OCCO5)cc3c2C)c1C | . | 127 | 93 | 102
O=C(COC(=O)c1ccc(S(=O)(=O)NCc2ccco2)cc1)NC1CCCCCC1 | -13 | 99 | 81 | .
NCC(c1ccc[nH]1)C(F)(F)F (stereo not given) | 0 | 97 | 107 | 100
O=C1Nc2ccccc2/C1=c1/sc2n(c1=O)CN(c1ccccc1)CN=2 | -14 | 91 | 92 | 96
CCOc1ccc(CC(=O)NCCn2c(C)cc3ccccc32)cc1 | . | 137 | 20 | 101
CC1CCC(NS(=O)(=O)c2cccc(C(F)(F)F)c2)CC1 (stereo not given) | -10 | 71 | 68 | .
CC(C)CC(=O)N/C(N)=N/c1nc2ccccc2o1 | 0 | 93 | 84 | 106
Cc1nccn1CC(=O)N1c2ccccc2Sc2ccccc21 | 2 | -0.3* | -0.6* | 107
CCN(C(=O)CN1C(=O)c2ccccc2S1(=O)=O)c1cccc2ccccc12 | -4 | 116 | 91 | .
O=C(c1ccc(COCC(F)(F)F)cc1)N1CCCC1 | -24 | 99 | 85 | 102
CCN(CC)CCCNC(=O)Cn1ncc2c3ccccc3n(Cc3ccccc3)c2c1=O | -16 | 101 | 86 | 103
O=C1CCC/C1=C1\SCC(=O)N1c1ccccc1 | -24 | 110 | 88 | .
COCCNC(=O)CCC(=O)N1Cc2cccc(OC)c2Oc2ncccc21 | . | 105 | 102 | 107
Cc1ccc(-n2nc(CO)c(C(=O)NC(C)CCCc3ccccc3)n2)cc1 (stereo not given) | -7 | 98 | 91 | 100
O=C1Nc2ccc(Br)cc2C1(O)Cc1ccncc1 (stereo not given) | -1 | 102 | 89 | 103
COC(=O)c1ccc(Cl)cc1NC(=O)c1ccc2c(c1)CC(c1ccccc1)OC2=O (stereo not given) | 10 | . | . | 112
Cc1cc(C(=O)Nc2sc3c(c2C#N)CCC3)no1 | -3 | 94 | 92 | 98
N/C(CSc1cccs1)=N\O | 13 | 102 | 92 | 107
COc1ccc(CN(C)C2CCCCC2)c(C)c1C | -6 | 96 | 110 | 105
COc1ccc(CNCc2nnc(-c3ccccc3)o2)cc1 | -23 | . | . | 105
N#C/C(=C\c1ccccc1OC(F)F)C(=O)O | -15 | 94 | 86 | .
CC(C)CNc1nnnc2c1sc1nc(N3CCOCC3)c3c(c12)CCCC3 | -6 | 112 | 91 | 101
COc1ccc(OC)c(NC(=O)NCC(c2ccc(OC)c(OC)c2)c2c[nH]c3ccccc23)c1 (stereo not given) | -28 | . | . | 97
CCn1cc(C(C)NC(=O)Nc2ccccc2C(=O)OC)c(C)n1 (stereo not given) | -11 | 101 | 93 | 101
CC1=C(C(=O)OCCc2ccccc2)C(c2ccc(C(F)(F)F)cc2)NC(=O)N1C (stereo not given) | -23 | . | . | 101
Cc1ccc2[nH]c3c(c2c1)CN(Cc1ccccc1)CC3 | -6 | 91 | 91 | 104
CC(C)NC(=O)Oc1cccc(Cl)c1 | -10 | 78 | 92 | 104
CC1(C)CC(=O)C(C(NC(=O)c2ccccc2)(C(F)(F)F)C(F)(F)F)=C(O)C1 | . | 60 | 94 | 109
COc1ccc2oc(=O)c(C(=O)N(C)Cc3cccnc3)cc2c1 | -98 | 105 | 91 | 108
COc1ccc(C(C#N)=C(SC)SC)cc1 | -12 | 114 | 91 | 102
CCCNc1cc(C)oc(=O)c1C(=O)CCC | -5 | 104 | 79 | 103
CCOc1ccccc1C(=O)Nc1c(NC)c2ccccc2oc1=O | -3 | 112 | 92 | 108
OCCSc1nc2ccccc2n1Cc1ccccc1 | 1 | 114 | 93 | .
COC(=O)c1c(NC(=O)Nc2ccccc2)sc2c1CCCC2 | 14 | 95 | 102 | .

Assay outcomes (PubChem BioAssay)
